GIV-Gai inh: inhibitors of GIV GBA-motif binding to rat Galpha-i3 | P08753 | percent of control (FP), % (test concentration not listed) | 0.42% of 210,000 active | Galpha-i3/FITC-GIV peptide fluorescence polarization, 90 min; hits give low values; scaled: aluminum fluoride 0%, vehicle 100%;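 active = replicate mean at 85% of control or lower, very high polarization wells dropped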;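 note: wells of about 15 µL received 100 nL stock; the first replicate is given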
Target sequence (P08753 whole entry, looked up): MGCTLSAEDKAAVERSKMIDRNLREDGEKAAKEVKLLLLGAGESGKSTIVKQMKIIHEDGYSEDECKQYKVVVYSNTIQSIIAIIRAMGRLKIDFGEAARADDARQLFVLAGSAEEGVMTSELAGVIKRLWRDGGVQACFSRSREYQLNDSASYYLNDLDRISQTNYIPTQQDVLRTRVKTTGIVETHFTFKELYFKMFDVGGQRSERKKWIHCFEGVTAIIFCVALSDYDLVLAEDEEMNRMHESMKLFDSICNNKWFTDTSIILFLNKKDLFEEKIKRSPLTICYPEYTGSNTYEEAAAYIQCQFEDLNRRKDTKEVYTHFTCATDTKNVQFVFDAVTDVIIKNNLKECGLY
HCMV UL50-53 inh: inhibitors of HCMV UL50-UL53 nuclear egress complex interaction | HTRF UL50-UL53 interaction, normalized percent inhibition | inhibition, % (test concentration not listed) | 0.15% of 190,000 active | AID 1918969;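 active = both replicates at 50% or more, plus weaker picks with an unusually low signal ratio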;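 note: stock transfer was 100 nL into about 20 µL; 0% = negative control wells and 100% = wells with untagged competitor protein; inactives centre near -12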
Sa growth inh: inhibitors of Staphylococcus aureus growth at 42 °C; relative growth, % (test concentration not listed); 0.53% of 170,000 active; S. aureus RN4220 growth, OD600, 20 h; hits give low values;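 active = growth at 42 °C up to 50% and 20 or more points under that at 30 °C, or under 10% at both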;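 note: 300 nL library stock went into each well; scaled to the means of positive and negative controls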
Sa growth inh second temp: also measured in Sa growth inh; calls as there; relative growth, %; measured here: growth at 30 °C;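 optical density after 20 h as mean of two plates; 100% = untreated growth and lower means inhibition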
* hit, by the source's call; nt = no result given; & = joins results of further samples.

Sample of the layout:
SMILES | GIV-Gai inh | HCMV UL50-53 inh | Sa growth inh | Sa growth inh second temp
COC(=O)CSCC1=CS(=O)(=O)c2ccc(Cl)cc21 | 101 | -2 | 108 | 93
Cc1cc2c(ncn2Cc2ccccc2)c(N)c1C | 107 | 12 | nt | nt
Cc1nc(Cc2nnc(SCc3cc(=O)oc4cc(C)c(C)cc34)o2)cs1 | nt | -16 | 98 | 97
Cc1nc(-c2cccc(C(=O)N3CCc4ccccc43)c2)no1 | 103 | 14 | nt | nt
O=C(COc1ccc(Cl)cc1Cl)NCCCN1CCOCC1 | 103 | nt | 90 | 87
CCn1cc(CNC)c(C)n1 | 105 | -26 | 101 | 86
CCOc1ccc(-c2cc(OC(=O)c3ccccc3)c3c(C)oc(C)c3c(=O)c2)cc1 | 99 | -69 | 96 | 99
Cc1cc(N/C=C(\C#N)C(=O)c2ccc(Cl)cc2)no1 | 110 | 1 | 101 | 100
Cc1cc(C)[n+](CC(O)CCl)n1CC(O)CCl (stereo unspecified) | nt | 3 | 106 | 96
Cc1ccc(CN2C(=O)/C(=C\c3ccc(C(=O)NCc4cccnc4)cc3)Oc3ccccc32)cc1 | 102 | nt | 115 | 84
CCOC(=O)C(CC)n1cnc2sc3c(c2c1=O)CCC3 (stereo unspecified) | 115 | -19 | 89 | 90
COc1ccccc1CNC(=O)C(=O)NCC(c1cccs1)S(=O)(=O)c1ccccc1 (stereo unspecified) | 96 | nt | 121 | 95
O=c1c2ccccc2nc2n1CCC2O (stereo unspecified) | 103&97 | -27 | 99 | 86

The list itself, previewed entries included:
SMILES | GIV-Gai inh | HCMV UL50-53 inh | Sa growth inh | Sa growth inh second temp
COC(=O)CSCC1=CS(=O)(=O)c2ccc(Cl)cc21 | 101 | -2 | 108 | 93
Cc1cc2c(ncn2Cc2ccccc2)c(N)c1C | 107 | 12 | nt | nt
Cc1nc(Cc2nnc(SCc3cc(=O)oc4cc(C)c(C)cc34)o2)cs1 | nt | -16 | 98 | 97
Cc1nc(-c2cccc(C(=O)N3CCc4ccccc43)c2)no1 | 103 | 14 | nt | nt
O=C(COc1ccc(Cl)cc1Cl)NCCCN1CCOCC1 | 103 | nt | 90 | 87
CCn1cc(CNC)c(C)n1 | 105 | -26 | 101 | 86
CCOc1ccc(-c2cc(OC(=O)c3ccccc3)c3c(C)oc(C)c3c(=O)c2)cc1 | 99 | -69 | 96 | 99
Cc1cc(N/C=C(\C#N)C(=O)c2ccc(Cl)cc2)no1 | 110 | 1 | 101 | 100
Cc1cc(C)[n+](CC(O)CCl)n1CC(O)CCl (stereo unspecified) | nt | 3 | 106 | 96
Cc1ccc(CN2C(=O)/C(=C\c3ccc(C(=O)NCc4cccnc4)cc3)Oc3ccccc32)cc1 | 102 | nt | 115 | 84
CCOC(=O)C(CC)n1cnc2sc3c(c2c1=O)CCC3 (stereo unspecified) | 115 | -19 | 89 | 90
COc1ccccc1CNC(=O)C(=O)NCC(c1cccs1)S(=O)(=O)c1ccccc1 (stereo unspecified) | 96 | nt | 121 | 95
O=c1c2ccccc2nc2n1CCC2O (stereo unspecified) | 103&97 | -27 | 99 | 86
O=C(CCc1c[nH]c2ccccc12)OCC(=O)c1cc2c3c(c1)CC(=O)N3CCC2 | nt | -6 | 95 | 85
COC(=O)c1nnn(-c2nonc2N)c1CN(C)C | 105 | -3 | 101 | 97
O=C(COc1nncc2ccccc12)NCCC1=CCCCC1 | nt | -44 | 77 | 92
C=CCN(C(=O)CSc1nc2c(c(=O)[nH]1)CCC2)c1ccccc1 | 97 | -14 | 99 | 88
COc1cccc(CNC(=O)c2ccc(-c3nc(CS(=O)c4ccccc4)c(C)o3)cc2)c1 (stereo unspecified) | 107 | nt | 157 | 98
CN1C(=O)C(C)(C)c2cc(S(=O)(=O)NCC3CCC(C(=O)N4CCCC4)CC3)ccc21 (stereo unspecified) | 106 | 10 | 105 | 101
CCc1nc(-c2ccc(Cl)cc2)no1 | 98 | -11 | 98 | 90
COC(=O)/C(C#N)=C/c1cc(C)n(CC(C)C)c1C | nt | -60 | 91 | 97
CCOc1ccc(-c2cc(OC)c3c(C)oc(C)c3c(=O)c2)cc1 | 112 | nt | 77 | 91
COc1ccc(-n2c(SCC(=O)NCCC3=CCCCC3)nc3n[nH]c(C)c3c2=N)cc1 | 98 | -22 | 107 | 81
Cc1cccc(CNC(=O)C2CCN(c3nnc(-n4c(C)ccc4C)s3)CC2)c1 | 101 | -22 | 88 | 80
CC(C)Cn1c(=O)c(=O)[nH]c2cc(-c3noc(-c4cccc5[nH]ccc45)n3)ccc21 | 101 | -36 | nt | nt
COc1cc(-c2c(C#N)c(N)n3c(nc4ccccc43)c2C#N)cc(Br)c1OC | 110 | 0 | nt | nt
Cc1ccc(C2=NC(C(F)(F)F)(C(F)(F)F)N=C(c3ccco3)O2)cc1 | 101 | nt | 103 | 96
O=c1c2cc3c(cc2[nH]c(=S)n1CCc1ccccc1Cl)OCO3 | 99 | nt | 122 | 89
COC(=O)/C=C/c1cnc2ccccc2c1 | 98 | -55 | nt | nt
CC(C)(C)CC(=O)NC(=S)NC1CCCCC1 | 102 | 2 | 115 | 100
COC(=O)C(Cc1c[nH]c2ccccc12)NC(C)=O (stereo unspecified) | 104 | 1 | 99 | 76
Cc1cc2c(cc3c(=O)n(CC(=O)NCCCN4CC(C)CC(C)C4)ncn32)s1 (stereo unspecified) | 104 | nt | 104 | 92
CCc1cccc(CC)c1NC(=O)c1cc(S(=O)(=O)N2CCc3ccccc32)cn1C | 100 | -12 | 114 | 92
CC[n+]1c(/C=C2/C=C(C)CC(C)C2)sc2ccccc21 (stereo unspecified) | 98 | nt | 83 | 70
COc1ccc(-n2nc(C(=O)Nc3ccc4c(c3)OCCO4)c(=O)n(C)c2=O)cc1 | 99 | -125 | nt | nt
Cc1ccccc1-c1noc(-c2cc(-c3ccc(F)cc3)n[nH]2)n1 | 108 | nt | 114 | 96
CCOc1cc(C(=O)N2CC(=O)Nc3ccc(F)cc3C2c2ccccc2)cc(OCC)c1OCC (stereo unspecified) | 98 | 7 | 95 | 90
O=C(CN1CCN(Cc2ccccc2Cl)S1(=O)=O)Nc1ccccc1 | 108&99 | -13&-20 | 98 | 89
CCN1/C(=C/C=C2/C(=O)N(C)C(=S)N2C)Oc2ccccc21 | 252 | -10 | 93 | 81
CCN1CCCC1CNC(=O)C1c2ccccc2C(=O)N(CCOC)C1c1c[nH]c2ccccc12 (stereo unspecified) | 101 | -28 | 93 | 85
CCc1ccc(C(=O)Nc2ccc(Br)cc2)o1 | 103 | 7 | 121 | 76
Cc1cc(C)nc(SCc2ccccc2F)n1 | 104 | -8 | 98 | 119
COC(=O)CN(Cc1ccccc1)S(=O)(=O)c1ccc(F)cc1 | 107 | -35 | 104 | 101
Nc1nonc1-n1nnc(C(=O)N2CCCC2)c1-c1ccccc1 | nt | -5 | 96 | 84
COc1ccc(-c2nn(CCCC(=O)NCCc3ccc(C)cc3)c(=O)c3noc(C)c23)cc1 | 98 | -19 | nt | nt
COc1ccc(NC(=O)c2[nH]nc3c2CSc2ccccc2-3)c(OC)c1 | 111 | -8 | 118 | 95
O=C(COc1ccccc1)NCCSC1CCCCC1 | 104 | -7 | 110 | 95
COc1ccc(/C=C2\SC(N)=NC2=O)cc1OC(=O)c1ccc(C)cc1 | 106 | -11 | nt | nt
Cc1cc(S(=O)(=O)Nc2noc3ccccc23)ccc1F | 98 | -2 | nt | nt
O=C(CC1C(=O)NCCN1C(=O)c1ccccc1)Nc1cc(Cl)ccc1Cl (stereo unspecified) | 103 | -16 | 85 | 87
Cc1nnc(NC(=O)c2ccc3c(c2)C(=O)N(Cc2cccnc2)C3=O)s1 | 103 | -49 | 103 | 74
CCC(C)(C)NC(=O)c1cccc(F)c1 | 108 | 23 | 98 | 100
COc1ccc(-c2csc(-c3nc(-c4ccc5c(c4)OCO5)cs3)n2)cc1OC | 95 | -5 | nt | nt
C=Cc1ccc2c(ccn2C(C)=O)c1 | 112 | -8 | 99 | 96
O=c1oc2cc(OCc3ccc(C(F)(F)F)cc3)ccc2cc1-c1ccccn1 | nt | 1 | 93 | 98
CCc1ccc(OC)c(S(=O)(=O)n2ccnc2)c1 | 99 | -27 | 100 | 99
Cc1[nH]c(=S)[nH]c(=O)c1CC(=O)O | 95 | -26 | 87 | 81
O=C(Oc1cc(=O)oc2c1c(=O)n1c3c(cccc23)CC1)c1ccc(F)cc1 | 109 | 10 | 71 | 41
Cc1cccc(NC(=O)c2c(NC(=O)c3ccccc3)sc3c2CCC3)c1 | 102 | -10 | 103 | 92
Cc1nn(CC(=O)N2CCN(c3ccc(Cl)cc3)CC2)c(=O)c2cccn12 | 106&101 | -22&-15 | 115 | 89
Going on with the list.
SMILES | GIV-Gai inh | HCMV UL50-53 inh | Sa growth inh | Sa growth inh second temp
Cc1cccc(N2CCN(S(=O)(=O)c3c(C)[nH]c(=O)[nH]c3=O)CC2)c1C | 106 | nt | 100 | 81
Cc1ccc(C)c(N2CCN(CCCNc3ncnc4onc(-c5ccc(Cl)cc5)c34)CC2)c1 | 98 | nt | 83 | 87
CO/C(=C\c1cccc(O)c1)C(=O)Nc1ccc2ccccc2n1 | nt | 8 | 99 | 105
CN1C(=C(C#N)C#N)N(N)c2ccccc21 | 101 | -15 | 143 | 79
O=S(=O)(NCCC1=CCCCC1)c1ccc(Cl)cc1 | nt | -8 | 84 | 78
COc1ccc(/C=C2\SC(=N)N(c3ccc(OC)cc3)C2=O)cc1 | 116 | nt | 83 | 90
O=C(Cn1cnc2sc3c(c2c1=O)CCCC3)NCCC(=O)N1CCN(c2ccc(F)cc2)CC1 | 97 | nt | 106 | 86
CC(C)(C)C(=O)N(Cc1ccccc1)c1ccccn1 | 108 | -12 | 106 | 106
CCc1nnc(NC(=O)CSc2ccc3nnc(-c4cccc(F)c4)n3n2)s1 | 102 | 4 | nt | nt
O=C(c1ccc(S(=O)(=O)N2CCCCCC2)cc1)N(c1ccccn1)c1ccccn1 | nt | -13 | 96 | 96
Cc1cn(S(=O)(=O)c2csc(Cl)c2Br)nc1-c1cccs1 | 107 | -20 | 101 | 89
CC1CCN(C(=O)c2ccc(CSc3nc4ccncc4[nH]3)cc2)CC1 | 104 | nt | 95 | 88

Record cards, from the list above. Screens in order: GIV-Gai inh	HCMV UL50-53 inh	Sa growth inh	Sa growth inh second temp
C=CCN(C(=O)CSc1nc2c(c(=O)[nH]1)CCC2)c1ccccc1 is entered as 97	-14	99	88
Cc1cc2c(ncn2Cc2ccccc2)c(N)c1C is entered as 107	12	nt	nt

Following part.
SMILES | GIV-Gai inh | HCMV UL50-53 inh | Sa growth inh | Sa growth inh second temp
CCc1ccc(NC(=O)c2ccc(F)c(S(=O)(=O)N3CCN(c4ccc(OC)cc4)CC3)c2)cc1 | 105 | nt | 124 | 77
CCCCCC(O)C1C(=O)OC(C)C(O)/C=C/C=C/C=C/C=C/C=C(\C)C(O)CC(O)CC(O)CC(O)CC(O)CC(O)CC1O (stereo unspecified) | nt | -52 | 97 | 93
CC(C)(C)C(=O)NC(=S)Nc1ccc2c(c1)COC2=O | 111 | nt | 75 | 60
COc1cccc(NC(=O)c2cnc(N(C)C)nc2C)c1 | 103 | -10 | nt | nt
CCOC(=O)c1[nH]c(C)c(C(=O)N2CCC(C)CC2)c1C | 106 | -4 | nt | nt
CCOC(=O)C1CCC(CN(Cc2cccc(Br)c2)S(=O)(=O)c2ccc(C)cc2)CC1 (stereo unspecified) | 111 | nt | 83 | 99
COc1ccccc1CNC(=O)c1ccc(N2CCCC2)c(NC(=O)Nc2ccccc2Cl)c1 | 106 | -13 | nt | nt
O=C(c1ccccc1)N1CCC2(CC1)Cc1ccccc1C2=O | nt | 5 | 88 | 96
CC1CCCC(NC(=O)Nc2cccs2)C1C (stereo unspecified) | 108 | nt | 105 | 79
CCOc1nc(-c2ccccc2)ccc1-c1noc(-c2ccc(C)cc2)n1 | 107 | 2 | 103 | 104
O=C1COc2ccc(C(=O)c3ccccc3)cc2CN1 | 102 | -26 | 88 | 80
CCOC(=O)c1cnc2c(Cl)cccc2c1Cl | nt | -9 | 106 | 93
Cn1c(N)c(C(=O)CSc2ccccn2)c(=O)n(C)c1=O | nt | -28 | 86 | 87
CCCn1c(N)c(N(C)C)c(=O)n(CC(=O)Nc2ccc(OC(F)(F)F)cc2)c1=O | nt | -22 | 97 | 97
Nc1cc(C(F)(F)F)ccc1C(F)(F)F | nt | -5 | 107 | 92
CCOC(=O)N1CCC(NC(=O)c2oc3ccc4c(c3c2C)C(O)CC(C)(C)O4)CC1 (stereo unspecified) | 113 | -4 | 106 | 89
CCOc1ccc(C(=O)N2CC(C)CC(C)C2)cc1 (stereo unspecified) | nt | -5 | 87 | 89
Cc1ccc2c(CSc3nnc4ccccn34)cc(=O)oc2c1 | nt | -26 | 91 | 98
CC1(C)CC(c2csc(N)n2)CCO1 (stereo unspecified) | 105 | -9 | 98 | 91
Cc1noc(C)c1C(=O)O/N=C1\CCSc2ccc(F)cc21 | 105 | -20 | 97 | 91
O=C1[C@@H]2CSC(c3ccc(Cl)cc3)N2C(=O)N1c1ccc(Cl)cc1 (stereo partly specified) | 100 | -18 | nt | nt
CC(=O)Nc1ccc(N2CCN(Cc3ccccc3)CC2)cc1 | 98 | -7 | 104 | 87
Cc1ccc(-c2c(C(F)(F)F)nn3c(NCc4cccnc4)cc(C)nc23)cc1 | 93 | 2 | nt | nt
Cc1c(C(=O)O)sc2ncn(C)c(=O)c12 | nt | -30 | 94 | 85
COc1ccc(NC(=O)c2oc3ccccc3c2NC(=O)c2cccc(F)c2)c(OC)c1 | 102 | -40 | 109 | 90
Cc1nc(COc2ccccc2Cl)[nH]c(=O)c1Cl | 99 | 2 | 98 | 74

High-throughput results as filed in PubChem BioAssay.
